KCNQ2 pot: potentiators of rat KCNQ2 potassium channel; 0.54% of 310,000 active; O88943; B-score at 10 µM; CHO-K1 KCNQ2, FluxOR thallium flux fluorescence; hits give high values;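 active = fluorescence ratio B-score at least 3 SD of library B-scores, with initial fluorescence B-score within 3 SD, cut at about 5.3 in these data; same plate scores as AID 2156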;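 note: B-score of peak minus minimum over baseline fluorescence ratio after K+ and Tl+ stimulus; positive B-score means potentiation of KCNQ2 with more thallium influx and brighter signal; only the inactives scoring about 0 or higher are listed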
Target sequence (O88943 whole entry, looked up): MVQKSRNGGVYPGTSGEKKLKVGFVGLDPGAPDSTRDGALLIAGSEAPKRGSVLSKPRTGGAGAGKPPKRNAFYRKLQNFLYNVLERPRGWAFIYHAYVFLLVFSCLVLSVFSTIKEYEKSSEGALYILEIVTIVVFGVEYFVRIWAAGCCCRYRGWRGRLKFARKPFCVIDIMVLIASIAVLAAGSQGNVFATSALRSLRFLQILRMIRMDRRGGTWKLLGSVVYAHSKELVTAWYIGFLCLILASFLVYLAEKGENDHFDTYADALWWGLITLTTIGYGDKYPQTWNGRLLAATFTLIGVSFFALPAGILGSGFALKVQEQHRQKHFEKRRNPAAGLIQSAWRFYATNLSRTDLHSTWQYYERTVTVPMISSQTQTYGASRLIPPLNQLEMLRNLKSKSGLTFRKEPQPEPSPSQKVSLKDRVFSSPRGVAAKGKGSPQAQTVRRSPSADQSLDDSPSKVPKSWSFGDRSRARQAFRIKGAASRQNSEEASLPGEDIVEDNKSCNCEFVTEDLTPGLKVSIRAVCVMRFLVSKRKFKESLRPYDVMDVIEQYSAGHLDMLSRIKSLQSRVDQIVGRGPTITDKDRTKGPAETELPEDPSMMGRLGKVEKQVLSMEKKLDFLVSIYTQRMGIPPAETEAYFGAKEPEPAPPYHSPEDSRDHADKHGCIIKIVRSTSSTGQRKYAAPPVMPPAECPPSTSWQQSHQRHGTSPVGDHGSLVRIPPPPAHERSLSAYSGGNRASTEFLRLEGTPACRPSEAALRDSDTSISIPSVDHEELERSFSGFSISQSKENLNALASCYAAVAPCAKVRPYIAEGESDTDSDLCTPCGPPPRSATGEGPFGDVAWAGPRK
KCNQ2 pot baseline: second read-out of KCNQ2 pot, no call of its own (marks repeat the call); B-score; compound at 10 µM; measured here: initial fluorescence intensity artifact check;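 brightness before thallium and not channel activity; 0 = typical well and far values either way flag optical interference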
* marks the source's active call; other numbers are inactive results. Not all compounds are listed (hit frequency here may not be typical).

SMILES	KCNQ2 pot	KCNQ2 pot baseline
O=C(CN1C(=O)NC2(CCCCCCC2)C1=O)NCc1cccs1	0.05	0.18
CN1CCN(C(=O)c2ccc3nc(-c4ccccc4)c(-c4ccccc4)nc3c2)CC1	1.23	-0.04
Cc1ccc(C(=O)Nc2cccc(NC(=O)c3ccc(C)cc3)n2)cc1	1.18	0.08
Cc1ccc(C(=O)c2coc3ccc(OCC(=O)O)cc23)cc1	1.62	0.13
CC(=O)OCC1(C)CN(c2ccccc2)N(C(C)=O)C1=O (stereo unspecified)	0.44	0.84
CCCCOc1cccc(C(=O)NC(=S)Nc2ccc(Cl)c(C(=O)O)c2)c1	1.9	0.02
O=C/C(=C\Nc1ccc(C(=O)N2CCOCC2)cc1)c1nc2ccccc2o1	0.48	0.26
S=C(NC1CCCC1)NN1CCOCC1	0.08	0.18
CCOC(=O)Cc1csc(NC(=S)NC(=O)c2ccc([N+](=O)[O-])cc2)n1	1.19	0.8
CCOC(=O)CNC(=O)CN1C(=O)CC(c2ccco2)Sc2ccccc21 (stereo unspecified)	0.02	-0.94
Cc1ccccc1N1CC(C(=O)NC2CCCC2)CC1=O (stereo unspecified)	0.18	-0.67
Cc1cc(C)cc(C(=O)NCC(=O)OC(C)C(=O)N(C)c2ccccc2)c1 (stereo unspecified)	0.28	-0.85
Cc1c2cnn(-c3ccccc3)c(=O)c2c(C)n1CCCC(=O)NCCN1CCN(C)CC1	0.79	0.54
CCN(CC)S(=O)(=O)c1cc(NC(=O)COC(=O)Cn2cnc3ccccc32)ccc1C	0.11	-0.04
COc1cccc(NC(=S)N(CCc2nc3cc(C)c(C)cc3[nH]2)Cc2cccnc2)c1	0.5	1.17
CCS(=O)(=O)n1nc(C(=O)N2CCOCC2)nc1N	0.71	0.03
Nc1nc(Cl)cc(Oc2ccc(Cl)cc2)n1	0.5	-0.26
O=c1[nH]cnc2c1C(c1ccccc1)c1c(nc[nH]c1=O)O2	0.48	1.16
COc1cccc(C(=O)O/N=C(\N)c2ccc([N+](=O)[O-])cc2)c1	0.88	-0.67
O=c1[nH]cnc2c1nc(SCc1ccccc1)n2C1OC(CO)C(O)C1O (stereo unspecified)	0.21	0.6
O=C1NC(=O)/C(=C/c2ccc(-c3cccc([N+](=O)[O-])c3)o2)S1	0.01	0.01
Cc1coc2c(C)c3oc(=O)c(CCC(=O)N4CCC(C(=O)NCCCC(=O)O)(c5ccccc5)CC4)c(C)c3cc12	0.12	0.9
CC(=O)Oc1ccc(N2C(=O)CCC2=O)cc1	1.06	0.48
CCOc1ccc(CCNC(=O)CCN2C(=O)COc3ccccc32)cc1OCC	0.05	-1.75
COc1cccc(CNC(=O)C2CC(=O)N(C3CCCCC3)C2)c1 (stereo unspecified)	2.07	-0.16
SMILES	KCNQ2 pot	KCNQ2 pot baseline
COc1ccc(C2=NOC(C(=O)N3CCCc4ccccc43)C2)cc1 (stereo unspecified)	0.12	0.89
O=C(NCc1ccc(F)cc1)c1cc2n(n1)C(C(F)(F)F)CC(C1CC1)N2 (stereo unspecified)	1.18	0.14
CCCNC(=O)COc1ncnc2sccc12	0.86	-1.67
O=C1CCCC(=O)N1c1ccc(N2CCOCC2)c([N+](=O)[O-])c1	0.04	1.1
O=C(CC1(O)C(=O)Nc2ccccc21)c1cccc(Br)c1 (stereo unspecified)	0.78	-0.72
O=C(Nc1ccccc1)Nc1cccc(-c2cn3cccnc3n2)c1	0.22	-0.69
CCOc1ccc(S(=O)(=O)n2nc(C)c(S(=O)(=O)N3CCOCC3)c2C)cc1	0.04	0.1
Cc1ccc(S(=O)(=O)N(C)c2ccccc2C(=O)N2CCCC2)cc1	0.86	-4.46
NC(=O)CCC(C(=O)O)N1C(=O)c2ccc(O)cc2C1=O (stereo unspecified)	1.31	0.01
Cc1ccc(-c2c(C#N)c(N)nc3c2CCCCC3)o1	0.57	1.26
COC(=O)c1ccc(OCC2NCCc3cc(OC)c(OC)cc32)cc1 (stereo unspecified)	0.95	-1.35
COc1ccc(NC(=S)N2CCN(CCN3C(=O)c4cccc5cccc(c45)C3=O)CC2)cc1	1.9	0.18
O=C(NCc1ccccc1)C(=O)Nc1nc(C23CC4CC(CC(C4)C2)C3)cs1	5.52*	0.71*
O=C(CSc1nc(-c2ccccc2)nc2ccc(F)cc12)Nc1ccc(C(=O)O)cc1	0.61	0.82
O=[N+]([O-])c1c(NCCCO)cc(N2CCN(Cc3ccc4c(c3)OCO4)CC2)c2nonc12	0.94	-0.33
CNc1c(NS(=O)(=O)c2ccc(CC(C)C)cc2)c(=O)oc2ccccc12	1.62	-0.72
O=C(/C=C/c1ccccc1)C1=C(O)C(=O)N(CCO)C1c1ccccc1[N+](=O)[O-] (stereo unspecified)	0.55	-1.27
CSc1nc2[nH]c3c(c2c2nncn12)CC(C)(C)OC3	1.92	-0.12
CN(C)C1(CNC(=O)C2CCN(S(=O)(=O)c3cc(Cl)ccc3Cl)CC2)CCCCC1	0.12	1.9
Cc1cccc(NC(=O)CCc2nc3sc4c(c3c(=O)[nH]2)CCCC4)n1	0.59	-1.65
CCC1CN(C(=O)N2CCC(C(=O)NCc3ccc(C)o3)CC2)c2cc(C)ccc2O1 (stereo unspecified)	0.69	0
C/C(Cl)=C/Cn1c(=O)c2c(nc(Br)n2Cc2ccccc2)n(C)c1=O	0.83	-0.62
CC(=O)Cc1nsc(NC(=O)c2ccc(-c3cc(C(F)(F)F)ccc3Cl)o2)n1	0.23	-2.08
CCOC(=O)c1sc(NC(=O)c2cc3n(n2)C(C(F)(F)F)CC(c2cccs2)N3)c(C(=O)OCC)c1C (stereo unspecified)	1	-0.79
O=C(N[C@@H](Cc1ccccc1)C(=O)OCc1ccccc1)c1nc[nH]c1C(=O)NC(c1ccccc1)c1ccccc1	0.12	-0.55
SMILES	KCNQ2 pot	KCNQ2 pot baseline
COC(=O)C(NS(C)(=O)=O)(c1c(C)[nH]c2ccccc12)C(F)(F)F (stereo unspecified)	0.61	0.58
COc1ccccc1CNC(=O)C1CCN(C(=O)N(C)C)CC1	0.74	1.31
CCOC(=O)N1CCC(NC(=O)Cc2ccccc2)CC1	0.36	-0.41
Cn1nc(C(F)(F)F)c2cc(NC(=O)OCc3ccc(F)cc3)sc21	4.4	-1.44
COc1cccc(C(CC(=O)NCc2ccco2)NS(=O)(=O)c2ccc(C)cc2)c1OC (stereo unspecified)	0.43	0.02
c1ccc(Nc2ccccn2)cc1	1.47	0.06
O=C(Nc1ccccc1)c1ccccc1NC(=O)c1ccccc1[N+](=O)[O-]	0.24	-1.99
CC1(c2ccc(OC(F)F)cc2)NC(=O)N(CC(=O)Nc2ccc(F)cc2)C1=O (stereo unspecified)	0.79	-0.47
CCOC(=O)Nc1ccc2c(c1)N(C(=O)CN1CCN3CCCC3C1)c1ccccc1CC2 (stereo unspecified)	1.64	0.01
CCC(=O)N1N=C(c2ccccc2)CC1c1ccccc1 (stereo unspecified)	0.43	-0.91
Cc1ccc(C)c2nc(SCC(=O)NCc3cccs3)c(C#N)cc12	0.03	-1.48
CC(C)(C)NC(=O)COC(=O)c1nsc(Cl)c1Cl	1.17	0.48
Cc1nn(C)cc1S(=O)(=O)N1CCN(Cc2ccc(F)cc2Cl)CC1	0.69	-1.31
Cc1ccc(-n2nnc(-c3cnc4ccccc4c3)n2)cc1	0.53	0.14
Cc1ccccc1NC(=O)CSc1nc(N)c(C#N)cc1C#N	0.46	-0.36
CCC[n+]1c(C)sc2c(OC)ccc(OC)c21	0.4	-1.45
COc1cc(C(=O)N/N=C(\C)c2ccc3c(c2)OCO3)cc(OC)c1OC	1.67	0.63
CCCCN(Cc1ccccc1)C(=O)C1CCN(S(=O)(=O)c2c(C)noc2C)CC1	1.09	-1.43
Cc1ccc(C(=O)NC(=S)Nc2cccc(-c3nc4ccccc4s3)c2)cc1	1	-1.62
CCN(CC)S(=O)(=O)N1CCN(S(=O)(=O)N2CCOCC2)CC1	1.4	0.04
COCCN1C=C2C(=O)C(C)(OC(=O)c3cccs3)C(=O)C=C2C=C1CCCC(=O)OC (stereo unspecified)	0.6	0.11
CCOc1ccccc1C(=O)Nc1nn[nH]n1	0.15	-0.33
COc1ccccc1C(=O)Nc1ccc(S(=O)(=O)N2CCCCC2)cc1	0.57	0.13
O=C1CN(C(=O)/C=C/c2ccccc2)CCN1	2.88	1.54
Cc1cc(-c2nc(C)c(C(=O)NNC(=O)NC(C)C)s2)no1	1.1	1.15
SMILES	KCNQ2 pot	KCNQ2 pot baseline
COc1ccc(-c2cc(C(=O)Nc3cccc(C(C)=O)c3)no2)cc1	0.93	-1.61
COc1cc(/C=N/NC(=O)CCC(=O)Nc2ccc(C)cc2)ccc1O	0.08	1.24
O=C(NCCCN1CCCC1=O)c1cc(=O)c2ccccc2o1	1.62	1.25
Cc1cccc2c(CC(=O)Nc3ccccc3)noc12	0.99	0.3
Cc1[nH]c2ccccc2c1C(=O)C(C)OC(=O)c1ccc(NC(=O)CC#N)cc1 (stereo unspecified)	1.45	-0.87
COc1ccc(OCCSc2nc3ccccc3n2CCC(=O)O)cc1	1.22	0.09
Cc1cc2cc(CNC(=S)Nc3ccc(OC(F)(F)F)cc3)ccc2n1C	1.45	-0.34
CCCN(CCC)C1Sc2ccc(C(=O)OC)cc2NC1=O (stereo unspecified)	1.12	-2.74
COC(=O)CSc1nnc(-c2c[nH]c3ccccc23)o1	0.75	-0.82
COC(=O)c1sccc1NC(=O)Nc1cccc(C)c1	2.82	3.2
CCN(C(=O)C(C)Cl)c1ccccc1 (stereo unspecified)	0.96	0.61
COc1cc(/C=C/c2ccc3cccc(O)c3n2)cc(OC)c1OC	5.31*	1.45*
COc1ccc2[nH]cc(C(=O)CN3CCCCC3C)c2c1 (stereo unspecified)	0.66	0.26
CCOc1ccc(NC(=O)N2CCN(c3nc4ccccc4s3)CC2)cc1	0.02	-0.5
CCN(Cc1ccccc1)c1ccc(/C=N/NS(=O)(=O)c2cccc([N+](=O)[O-])c2)cc1	0.63	-0.16
Cc1cc(NC(=O)c2ccccc2)nc(C)n1	0.91	1.11
CSCCC(NC(=O)OCc1ccccc1)C(=O)NCc1cccnc1 (stereo unspecified)	0.2	-1.3
CCOc1ccc2nc(SCC(=O)c3ccc(O)cc3O)sc2c1	0.32	-0.19
O=C(CSc1nncn1-c1ccccc1)Nc1cc(F)ccc1F	0.03	0.04
CCn1c(=O)c(C(=O)CN2CCN(S(=O)(=O)c3ccccc3)CC2)c(N)n(Cc2ccccc2)c1=O	1.75	-0.72
O=C1CCCN1CC(O)CS(=O)(=O)Cc1ccccc1 (stereo unspecified)	0.51	2.83
CCCCOc1cccc(-c2nnc(N)s2)c1	0.04	0.43
O=C(CSc1nc(=O)n2ccccc2n1)Nc1ccc2c(c1)OCO2	2.1	-2.41
CCOCCCNCc1cccc(OC)c1	0.84	-2.31
Cc1ccc(S(=O)(=O)NC(=O)NCCCN2CCOCC2)cc1	0.15	0.67
SMILES	KCNQ2 pot	KCNQ2 pot baseline
O=C(Cc1ccccc1)Nc1cccc(-c2nnc(-c3ccco3)o2)c1	0.41	-1.16
CC(=O)c1cccc(NC(=O)CN(C)S(=O)(=O)c2cccc3nsnc23)c1	0.08	0.96
Cc1ccc(Sc2ncccc2C(=O)NCc2cc([N+](=O)[O-])ccc2O)cc1C	0.68	-0.08
Cc1nc(NCCN)c(C#N)c2c1COC(C)(C)C2	2.06	-0.49
CCCCN(C)C(=O)CNC(=O)c1nn(-c2ccc(OC)cc2OC)c(=O)c2ccccc12	1.2	-1.8
Cc1ccc2c(C)c(C(=O)NCCN3CCOC3=O)oc2c1C	5.47*	-2.74*
CCOC(=O)c1ccc[n+](CC(=O)Nc2cc(C(F)(F)F)ccc2Cl)c1	1.48	-0.08
Cc1cc(C)nc(Nc2ccc(F)cc2)n1	0.43	-0.57
Cc1c(C=O)c2ccccc2n1CC(=O)NCc1ccc2c(c1)OCO2	0.66	-1.18
N#Cc1c(-c2ccccc2)nc(-c2ccncc2)[nH]c1=O	0.08	0.45
Cc1cc(C)n(C(=O)COc2ccc([N+](=O)[O-])cc2)n1	2.32	0.06
Cc1cccc(OC(C)C(=O)N2CCN(Cc3ccc4c(c3)OCO4)CC2)c1 (stereo unspecified)	0.16	-0.03
Cc1noc(C)c1CSCC(=O)N(C)CC(=O)Nc1ccc(F)c(F)c1F	0.54	0.33

Compounds listed so far containing an NH in an aromatic ring (twelve):
SMILES	KCNQ2 pot	KCNQ2 pot baseline
COc1cccc(NC(=S)N(CCc2nc3cc(C)c(C)cc3[nH]2)Cc2cccnc2)c1	0.5	1.17
O=c1[nH]cnc2c1C(c1ccccc1)c1c(nc[nH]c1=O)O2	0.48	1.16
O=c1[nH]cnc2c1nc(SCc1ccccc1)n2C1OC(CO)C(O)C1O (stereo unspecified)	0.21	0.6
CSc1nc2[nH]c3c(c2c2nncn12)CC(C)(C)OC3	1.92	-0.12
Cc1cccc(NC(=O)CCc2nc3sc4c(c3c(=O)[nH]2)CCCC4)n1	0.59	-1.65
O=C(N[C@@H](Cc1ccccc1)C(=O)OCc1ccccc1)c1nc[nH]c1C(=O)NC(c1ccccc1)c1ccccc1	0.12	-0.55
COC(=O)C(NS(C)(=O)=O)(c1c(C)[nH]c2ccccc12)C(F)(F)F (stereo unspecified)	0.61	0.58
CCOc1ccccc1C(=O)Nc1nn[nH]n1	0.15	-0.33
Cc1[nH]c2ccccc2c1C(=O)C(C)OC(=O)c1ccc(NC(=O)CC#N)cc1 (stereo unspecified)	1.45	-0.87
COC(=O)CSc1nnc(-c2c[nH]c3ccccc23)o1	0.75	-0.82
COc1ccc2[nH]cc(C(=O)CN3CCCCC3C)c2c1 (stereo unspecified)	0.66	0.26
N#Cc1c(-c2ccccc2)nc(-c2ccncc2)[nH]c1=O	0.08	0.45

Assay outcomes from PubChem.
